# HCMV NEC inh = inhibitors of HCMV UL50-UL53 interaction, biochemical, HTRF | HCMV UL50-UL53 nuclear egress complex (human cytomegalovirus) | normalized percent inhibition | inhibition, % (concentration not given with the values) | 0.15% of 190,000 active;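 active means both replicates at 50% or more, plus weaker picks with an unusually low signal ratio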;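 further: stock transfer was 100 nL into about 20 µL; 0% = negative control wells and 100% = wells with untagged competitor protein; inactives centre near -12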
# Numbers without * were called inactive; & = joins results of further samples. Only part of the results is shown; count on the stated rates, not on these rows.
SMILES,HCMV NEC inh
Cc1cc(=O)cc(C)n1-c1ccccc1O,-3
Cc1oc(S(=O)(=O)N2CCCCC2)cc1NC(=O)Nc1ccccc1,-12&-12
Cc1ccccc1C1CCCN(C(=O)CCC(C)C)C1 (stereo not given),-12
CC1CCN(C(=O)COc2cccc3c2CCN(Cc2ccccc2)C3=O)CC1,-16
Cn1nc(C(F)(F)F)c(CNC(=O)c2ccc(C(F)(F)F)cc2)c1N1CCOCC1,3
CCN1CCN(Cc2ccc(NC(=O)c3cc(NC(=O)C(=O)c4c[nH]c5ccccc45)cc(OC)c3)cc2C(F)(F)F)CC1,-16
CSc1nnc(NC(=O)c2ccco2)s1,-16
c1ccc(-n2ncc3c(NCc4cccs4)ncnc32)cc1,7
Nc1c(C(=O)c2ccccc2)sc2nc3c(cc12)CCC3,-33
CC(=O)N1CCCN(c2nccc(-c3cnn(-c4ccccc4F)c3)n2)CC1,-6
Cc1ccccc1-n1cc(-c2ccnc(NCCC3(O)CCN(C)CC3)n2)cn1,39&39
CC(C)c1nnc(NC(=O)CC23CC4CC(CC(C4)C2)C3)s1,-10
Cn1c2c(cc(-c3ccc(OC(F)(F)F)cc3)c1=O)CN(C(=O)C1CC(=O)c3ccccc31)CC2 (stereo not given),-37
CCOC(=O)CSc1nc2ccccc2s1,-13
CCc1n[nH]c2c1CN(C(=O)c1cc(C)nc3ccc(F)cc13)CC2,-14
Cc1cc(C)cc(N=Cc2c(C(F)(F)F)nn(C)c2Cl)c1,0
C=CC[N@@+]12CC[C@]34c5ccccc5N5/C=C6\C7N(/C=C(\C53)[C@@H](C[C@@H]41)/C(=C/CO)C2)c1ccccc1[C@@]71CC[N@@+]2(CC=C)C/C(=C\CO)[C@@H]6C[C@@H]12 (stereo not given in full),-9
C1CCC(NC(=NC2C3CC4CC(C3)CC2C4)N2CCOCC2)CC1 (stereo not given),-13
O=C(Nc1cccc(Cl)c1)c1cccc(NC(=O)C(F)(F)F)c1,-23
O=C(NC(NC(=S)Nc1ccc(F)c([N+](=O)[O-])c1)C(Cl)(Cl)Cl)C(c1ccccc1)c1ccccc1 (stereo not given),-4&4&-4

# Brought forward from above: 4 compounds, then new ones.
SMILES,HCMV NEC inh
C=CC[N@@+]12CC[C@]34c5ccccc5N5/C=C6\C7N(/C=C(\C53)[C@@H](C[C@@H]41)/C(=C/CO)C2)c1ccccc1[C@@]71CC[N@@+]2(CC=C)C/C(=C\CO)[C@@H]6C[C@@H]12 (stereo not given in full),-9
C1CCC(NC(=NC2C3CC4CC(C3)CC2C4)N2CCOCC2)CC1 (stereo not given),-13
O=C(Nc1cccc(Cl)c1)c1cccc(NC(=O)C(F)(F)F)c1,-23
O=C(NC(NC(=S)Nc1ccc(F)c([N+](=O)[O-])c1)C(Cl)(Cl)Cl)C(c1ccccc1)c1ccccc1 (stereo not given),-4&4&-4
COCCn1c(=NC(=O)c2ccc(C(=O)OC)cc2)sc2cc(C)ccc21,-5
Cc1ccc2c(c1)C(c1ccccc1)N(C(=O)C(C)C)CC(=O)N2 (stereo not given),-9
Cc1ccc2nc(SCc3ccccc3)[nH]c2c1,-1
COCc1nc2ccccc2n1Cc1ccc(F)cc1,-7
Cc1cc(NC(=O)c2ccc(-c3nc4ccccc4s3)s2)no1,-6
O=C(CSc1nc2c(c(=O)n1-c1ccccc1)SCC2)Nc1ccccc1,-3
CCN(CC)c1ccc2cc(C(=O)Nc3ccccc3)c(=O)oc2c1,-23
CCCCCC(=O)/C=C/[C@@H]1[C@@H](C/C=C\CCCC(=O)O)[C@@H](O)C[C@H]1O,-34&-34
O=C1Nc2ccc(Cl)cc2/C1=C/c1cc(Cl)c(O)c(Cl)c1,-74
CN1/C(=C\C=Nc2cccc(C(=O)O)c2)C(C)(C)c2ccccc21,1
Oc1c(C(Nc2ccc(F)cc2)c2ccncc2)ccc2cccnc12 (stereo not given),-64
CCOC(=O)c1[nH]c2ccccc2c1NC(=O)COc1ccccc1,-15
NCCCNCCCCN(CCCN)[N+]([O-])=NO,-12&-12
C[C@@H]1CC[C@H]2[C@@H](C)C(O)O[C@@H]3OC4(C)CC[C@@H]1[C@]32OO4 (stereo not given in full),-54
Oc1ccccc1N=Cc1c(Cl)nc2sccn12,5
CCCCCC#CCC#CCC#CCCCCCCC(=O)O,-20&-20
CC(NC(=O)Cc1cc(F)cc(F)c1)C(=O)NC1C(=O)N(C)c2ccccc2-c2ccccc21 (stereo not given),-20
O=C(COc1cccc2c(=O)[nH]ccc12)c1ccccc1,5&-1
O=S(=O)(c1cccs1)N1CCOCC1,-9
CN1C(=O)SC(Cc2ccc(N)cc2)C1=O (stereo not given),-8
CC(=O)Oc1ccc(N(C(C)=O)S(=O)(=O)c2cccs2)cc1,-14
Cc1ccc(Cn2c(C(C)O)nc3ccccc32)cc1 (stereo not given),-11
CCOc1ccc2cc(S(=O)(=O)N3CCN(C)CC3)ccc2c1,-22
COc1ccc(-c2nc3n(c2N)CCS3)cc1,-5
O=C(Nc1ccc(-c2nc3ccccc3o2)cc1)C1=COCCO1,9&6
CCc1nc(NC(=O)N(C)Cc2cccc(-n3cccn3)c2)nn1C,42&42
CCCCC[C@H](O)/C=C/[C@@H]1[C@@H](CCCCCCC(=O)O)[C@H](O)C[C@@H]1O,-15&-15
Cc1ccc(NCCCc2ccccc2)c(N)c1,-2
O=C(O)Cc1cccc(OCCCN(Cc2cccc(C(F)(F)F)c2Cl)CC(c2ccccc2)c2ccccc2)c1,-27&-1
CC(NC(=O)CC1Sc2ccccc2NC1=O)c1ccccc1 (stereo not given),7
CN(C)C(=O)CSc1nc(N)cc(=O)[nH]1,-17
O=C(Nc1cccc(Cl)c1)c1cc(O)cc(O)c1,-41
CCSc1nc2c(c(=O)n1-c1ccccc1OC)SCC2,-10
CC(=NNC(=S)N1CCC1)c1ccccn1,-1
O=C(Nc1ccccc1-c1nc2ccccc2s1)C1=COCCO1,6&0
CCCCC/C=C\C/C=C\C/C=C\C/C=C\CCCC(=O)O[C@@H](CO)COCCCCCCCCCCCCCCCC,-7
Cc1nc(-c2ccc(Cl)cc2)cc(C(F)(F)F)c1C#N,-7
Nc1nc2ccc(S(N)(=O)=O)cc2s1,1
COc1cccc(Nc2nc(O)c(C3=c4ccccc4=NC3=O)s2)c1,-8
CCC(=O)Nc1ccc(S(=O)(=O)NC(C)(C)C)cc1,-7

# Individual results from above.
# Under HCMV NEC inh, CN(C)C(=O)CSc1nc(N)cc(=O)[nH]1 reads -17
# Under HCMV NEC inh, Nc1nc2ccc(S(N)(=O)=O)cc2s1 reads 1
# Under HCMV NEC inh, CCSc1nc2c(c(=O)n1-c1ccccc1OC)SCC2 reads -10
# Under HCMV NEC inh, CCCCC/C=C\C/C=C\C/C=C\C/C=C\CCCC(=O)O[C@@H](CO)COCCCCCCCCCCCCCCCC reads -7

# Later entries.
SMILES,HCMV NEC inh
COc1cccc(NC(=O)c2cc(=O)c3ccccc3o2)c1,-31
CC1CN(CC(=O)Nc2ccc3c(c2)Cc2cccc(-c4cc(=O)cc(N5CCOCC5)o4)c2S3)CC(C)O1 (stereo not given),-16
CC(C)c1nnc(NC(=O)c2ccc(-c3ccccc3)cc2)s1,-14
O=C(C1Cc2ccccc2CN1S(=O)(=O)c1cccs1)N1CCCCCC1 (stereo not given),-7
Cc1nsc(NC(=O)N2CCCCC2c2nc(C(C)C)no2)n1 (stereo not given),42&42
COc1cccc(C(=O)N2CCN3C(=O)[C@H](C(C)C)NC(=O)[C@H]3C2)c1,-9
OC1CCCCC1c1ccccn1 (stereo not given),-18
COc1cc(C(=O)NC2CCN(C)CC2)ccc1Nc1ncc2c(n1)N(Cc1ccccc1)CCC(=O)N2C,-3
c1nc(NCC2CCCO2)c2[nH]cnc2n1 (stereo not given),-15
CCC(=O)NCCn1c(C)cc2ccccc21,-11
COc1cccc(/C(O)=C2\C(=O)C(=O)N(c3ccccn3)C2c2ccccc2)c1 (stereo not given),-16
O=c1oc2ccccc2cc1-c1nc(-c2ccccc2)cs1,-31
Brc1cccc(-c2nnco2)c1,6&-12
Cc1sc2ncnc(Sc3nnnn3-c3ccccc3)c2c1C,0
COc1cc2c(cc1OC)CC(=O)N(CCCN(C)CC1Cc3cc(OC)c(OC)cc31)CC2 (stereo not given),-4
CC1Nc2ccc(Cl)cc2S(=O)(=O)N1 (stereo not given),0
FC(F)(F)c1cccc(NCc2cn3cccnc3n2)c1,-16
CC(C)Oc1ccc(C(=O)N=c2sc3cc(Cl)ccc3n2C)cc1,-2
CC(C)NC[C@@H](O)COc1ccc(CC(N)=O)cc1,-23
CC(C)Cn1nc(C(=O)N2CCCC2)c2c1CCC(NCCc1cccs1)C2 (stereo not given),-7
C=C(Br)CSCc1nc2ccccc2[nH]1,-14
COC(=O)c1cccc(C(=O)Nc2ccc(C)cc2)n1,-24
CCCCCC(=O)/C=C/C=C\C/C=C\C/C=C\CCCC(=O)O,-6
Cc1cccc(N/C=C/C(=O)c2cccs2)c1C,-19
O=C(CSc1nc2ccccc2o1)N1CCCC1,8
COc1ccc2c(C)cc(-n3nc(C)cc3C)nc2c1,-17
Cc1cccc(OCC(O)CN2CCN(Cc3ccccc3)CC2)c1C (stereo not given),-1
CCN1CCN(S(=O)(=O)c2cccs2)CC1,0
CC(C)(C)c1cnnn1-c1ccc(NC(=O)COc2ccccc2)cc1,3
Cc1ccc2c(c1)sc(=NC(=O)c1cccs1)n2C,-3

# Pulled by structure from the entries so far, 4 records:
SMILES,HCMV NEC inh
C=C(Br)CSCc1nc2ccccc2[nH]1,-14
CCN1CCN(S(=O)(=O)c2cccs2)CC1,0
O=C(CSc1nc2ccccc2o1)N1CCCC1,8
CC(C)(C)c1cnnn1-c1ccc(NC(=O)COc2ccccc2)cc1,3

# (cont.)
SMILES,HCMV NEC inh
O=C1C2CC3CC1CC(O)(C3)C2,-46
CCCCC[C@H](O)/C=C/[C@H]1OC(O)C[C@H](O)[C@@H]1C/C=C\CCCC(=O)O (stereo not given in full),-10&-10
C=C1CC[C@H](O)C/C1=C/C=C1\CCC[C@]2(C)[C@@H]([C@H](C)/C=C/[C@H](C)C(C)C)CC[C@@H]12,-8
CCCCn1c(C(Cc2ccccc2)NC(=O)COC)nc2ccccc21 (stereo not given),-3
CCn1ccnc1CN(C)C(=O)c1cc(-c2cnc(N)nc2)nc2cc(C)ccc12,-40&-40
COc1c(C)c2c(c(O)c1CC=C(C)CCC(=O)OCCN1CCOCC1)C(=O)OC2,8
CC1CN(C(=O)c2cc3cc(Br)ccc3oc2=O)CC(C)O1 (stereo not given),-15
CN(C)C(=O)CSc1cnc2ccccc2n1,10
O=C(Nc1c2c(nn1-c1ccccc1)CS(=O)C2)c1cccs1 (stereo not given),15
CC1CCN(CC(O)COc2ccccc2Br)CC1 (stereo not given),-6
Cc1ccc(OCC(=O)NC(C)C(=O)O)cc1 (stereo not given),-20
CNS(=O)(=O)c1cc(NCc2cc3ccccc3s2)cc(C(=O)Nc2ccc(OC)cc2)c1,4
CC(C)(C)c1ccccc1OCC(O)CN1CCN(c2ccccc2F)CC1 (stereo not given),4&-2
COc1cc(C)c2c(=O)c(-c3csc(C)n3)coc2c1,-2&-7
Cn1c(Cc2ccccc2C(=O)O)nc(=O)c2ccccc21,-4
CCCCCCCCCCCCCCCCC/C=C\C(=O)O,-22&-22
Cc1ccccc1Cn1c(C(C)NC(=O)C(C)(C)C)nc2ccccc21 (stereo not given),-6
COc1cc(C(=O)NC2CCN(C)CC2)ccc1Nc1ncc2c(n1)N(C1CCCC1)CCC(=O)N2C(C)C,-9
N#Cc1c(NC(=O)C2=COCCO2)sc2c1CCC2,-1
COc1ccc(-c2cc(=O)c3c(OC)c(OC)c(OC)c(OC)c3o2)cc1,14
O=S(=O)(O)CCCS(=O)(=O)O,-8
OCCC#Cc1nc(-c2ccc(F)cc2)c(-c2ccncc2)n1CCCc1ccccc1,-28&-29&-30
CCOC(=O)Cc1nc(O)cs1,-12
CC(C)N1CCc2c(sc(NC(=O)C(C)(C)C)c2C#N)C1,-11
Clc1ccccc1Oc1cnc2ccccc2n1,2
Cc1ccc(Cn2ncc3c(N4CCOCC4)ncnc32)cc1,-9
COc1ccccc1NC(=O)CCn1c(=O)sc2ccccc21,9
CC(=O)Nc1ccc(S(=O)(=O)NCCn2ccc3ccccc32)cc1,-4
O=C(O)CCC(=O)Nc1ccccc1C(=O)c1ccccc1,-10
O=C1CCCCCN1Sc1c(-c2ccccc2)nc2sccn12,-6
COc1ccc(-c2nnc(NC(=O)C(C)Sc3ccc(C)cc3)s2)cc1 (stereo not given),6
CCCCC[C@H](O)/C=C/C=C\CCCCCCCC(=O)O,-7
COc1ccc(S(=O)(=O)N2CCCc3cccc(O)c32)cc1,-6
Cc1cc(C)c(NC(=O)CSc2ccc3nnc(-c4ccccc4)n3n2)c(C)c1,1
Clc1ccc(-c2nc3c4ccsc4ncn3n2)cc1,-12
N#Cc1ccc2nc(C(O)C(O)c3nc4ccc(C#N)cc4[nH]3)[nH]c2c1 (stereo not given),-4
COc1ccc2cc(C(=O)N3CCOCC3)sc(=O)c2c1OC,-24
CCCCCCNC(=O)Nc1ccc(S(=O)(=O)Nc2ccc(CCNC[C@H](O)COc3ccc(O)cc3)cc2)cc1,0
CCOC(=O)c1sc(N)nc1-c1ccccc1,-2
CCOc1ccc2nc(SCCN(C)C)[nH]c2c1,-6

# In a second layout: four of the compounds above
Cc1cc(C)c(NC(=O)CSc2ccc3nnc(-c4ccccc4)n3n2)c(C)c1
  HCMV NEC inh: 1

CCOC(=O)c1sc(N)nc1-c1ccccc1
  HCMV NEC inh: -2

CCCCCCNC(=O)Nc1ccc(S(=O)(=O)Nc2ccc(CCNC[C@H](O)COc3ccc(O)cc3)cc2)cc1
  HCMV NEC inh: 0

Clc1ccc(-c2nc3c4ccsc4ncn3n2)cc1
  HCMV NEC inh: -12

# Screening results from PubChem.
